Screening data from PubChem.
Cruzain noTriton – blocks cruzain activity in detergent-free assay. P25779. purified cruzain, Z-FR-AMC fluorescence, no detergent. Potency, µM, without a hit: max response, negative = inhibition, hits mostly inhibitors. 200,000 compounds, 2.3% hits; active = well fitted curve in the direction sought with a large enough effect; inconclusive = small, poorly fitted or top-dose-only effect, or another doubt; inactive = no such curve, though single readings can be large; an effect the other way counts as inactive or inconclusive;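 also: plate controls were enzyme without inhibitor for no effect and buffer without enzyme for full effect; nearly all actives have a fitted effect of over 40% in size; top concentration of the series not given in the record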
Target sequence (P25779 123-467 limits assumed): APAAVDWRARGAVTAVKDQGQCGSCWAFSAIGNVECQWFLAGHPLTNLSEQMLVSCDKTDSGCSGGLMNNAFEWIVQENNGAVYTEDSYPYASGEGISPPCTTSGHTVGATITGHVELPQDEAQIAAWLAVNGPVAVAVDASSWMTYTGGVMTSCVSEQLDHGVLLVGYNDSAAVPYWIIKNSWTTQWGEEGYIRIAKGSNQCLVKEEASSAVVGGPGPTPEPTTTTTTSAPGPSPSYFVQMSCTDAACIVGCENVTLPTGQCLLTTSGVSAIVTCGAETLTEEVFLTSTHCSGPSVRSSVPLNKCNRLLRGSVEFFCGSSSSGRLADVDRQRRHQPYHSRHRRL
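Purified cruzain at 1.5 nM, pre-incubated 15 min with compound at room temperature in 100 mM sodium acetate pH 5.5, 5 mM DTT, 0.00005% Triton X-100. Reaction started with 2 uM Z-FR-AMC; AMC fluorescence increase over 60 s gives rate.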
Cruzain inh Det – blocks cruzain activity in presence of Triton detergent; P25779; purified cruzain, Z-FR-AMC fluorescence, 0.01% Triton; Potency, µM, for the others: max response, negative = inhibition, usual class: inhibitors; 200,000 compounds, 0.43% hits; active = well fitted curve in the direction sought with a large enough effect; inconclusive = small, poorly fitted or top-dose-only effect, or another doubt; inactive = no such curve, though single readings can be large; an effect the other way counts as inactive or inconclusive;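 also: plate controls were neutral wells for no effect and buffer without enzyme for full effect; nearly all actives have a fitted effect of over 40% in size; top concentration of the series not given in the record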
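Cysteine protease activity tested under reducing, mildly acidic conditions (100 mM sodium acetate pH 5.5, 5 mM DTT) plus 0.01% Triton X-100. Cruzain 1.5 nM; substrate Z-FR-AMC 2 uM; 15 min compound preincubation at room temperature.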
Lassa entry inh – Lassa virus entry inhibition; Lassa virus pseudotype entry inhibition, cell reporter; control for the full effect not named in the record; Potency, µM (doses to about 37.9 µM), for inactives: top-dose activity change, negative = inhibition, hits mostly inhibitors; 300,000 compounds, 1.2% hits; AID 540256; active means well fitted inhibition curve with a large enough effect; inconclusive means small, poorly fitted or top-dose-only effect, or effect the other way; inactive means flat fitted curve, though single readings scatter; tested in HEK293 cells; also: % is scaled to controls: 0 for no effect and ±100 for the full control effect; nearly all actives have a fitted effect of over 50% in size; luciferase read-out
RE007 growth inh – less growth of the S. pombe RE007 Vpr strain | S. pombe RE007 Vpr strain, BacTiter-Glo ATP luminescence, 24 h; control for the full effect not named in the record | Potency, µM (series often up to 92.2 µM), for the others: at the highest dose activity change, negative = less growth | 360,000 compounds, 0.21% hits | AID 651644; active = well fitted falling curve with a large enough effect; inconclusive = small, poorly fitted or top-dose-only effect; inactive = no such curve, though single readings can be large or run the other way;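 also: % is scaled to controls: 0 for no effect and ±100 for the full control effect; nearly all actives have a fitted effect of over 50% in size; the assay follows cell death caused by Vpr and the record does not say whether a fall means rescue or toxicity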
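Fission yeast strain RE007, carrying one chromosomally integrated HIV-1 vpr copy, was seeded at OD 0.01 in PMG+AL medium with 23 nL pinned compound. After 24 h at 30 °C and 99% humidity, viability was read by BacTiter-Glo luminescence.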
SARS PLpro yeast – blocks SARS-CoV papain-like protease in a yeast assay; S. cerevisiae expressing SARS-CoV PLpro, growth rescue; control for the full effect not named in the record; Potency, µM (top dose mostly 32.9 µM), without a hit: at the highest dose activity, positive = growth rescue; AID 485353; 330,000 compounds, 0.19% hits; also: 0% is about no effect; nearly all actives have a fitted effect of over 55% in size; growth read by luminescence after 48 h
StopGo reporter – lowers the luciferase signal of an FMDV 2A StopGo reporter. Potency, µM (highest dose often 57.9 µM), without a hit: at the top dose signal change, negative = less light. human cells with a luciferase reporter of 2A StopGo recoding; control for the full effect not named in the record. 410,000 compounds, 1.2% hits. AID 1159524; active = well fitted falling curve with a large enough effect; inconclusive = small, poorly fitted or top-dose-only effect; inactive = no such curve, though single readings can be large or run the other way; tested in HEK293T cells; also: % is scaled to controls: 0 for no effect and ±100 for the full control effect; nearly all actives have a fitted effect of over 45% in size; luciferase light after 4 h
NS1 inh – inhibitors of influenza NS1 protein function. Potency, µM (series often up to 46.1 µM), without a hit: top-dose activity, positive = more growth. AID 2326. S. cerevisiae slowed by influenza A NS1, growth recovery by OD600. 270,000 compounds, 0.4% hits; also: actives are rising curves; nearly all actives have a fitted effect of over 50% in size
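Compounds were scored for reversing the slow growth caused by influenza A NS1 in S. cerevisiae, measured by optical density at 600 nm. Assay medium contained 2% galactose at pH 6.0; NS1-free yeast of the same strain were the positive control.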
MARV entry inh – blocks Marburg virus binding to or entry into cells; Marburg virus pseudotyped entry inhibition, cell reporter; control for the full effect not named in the record; about a third of the inactives were read at about 46 µM; Potency, µM (doses to about 37.8 µM), without a hit: at the top dose activity change, negative = inhibition, most hits filed as inhibitors; 300,000 compounds, 1.8% hits; AID 540276; active = well fitted inhibition curve with a large enough effect; inconclusive = small, poorly fitted or top-dose-only effect, or effect the other way; inactive = flat fitted curve, though single readings scatter; tested in HEK293 cells; about a fifth of its hits are not listed in these tables; also: % is scaled to controls: 0 for no effect and ±100 for the full control effect; luciferase read-out
* marks the source's active call; other numbers are inactive results; ? = inconclusive; / = not tested or not shown; & = joins results of further samples; [ ] = dose if it differs, or a comment. Unless noted, calls follow the shape of the dose curve; as a rule, active means well fitted rising curve with a large enough effect; inconclusive means small, poorly fitted or top-dose-only effect; inactive means no such curve, though single readings can be large or run the other way. Potency is read from the fitted curve at half-maximal effect. Random draw from the library; 4.7% or so of the library scored in one or more.

SMILES	Cruzain noTriton	Cruzain inh Det	Lassa entry inh	RE007 growth inh	SARS PLpro yeast	StopGo reporter	NS1 inh	MARV entry inh
COc1ccccc1NC(=O)c1ccc(N2CC3CC(C2)c2cccc(=O)n2C3)c(NC(=O)c2ccncc2)c1 (stereo not given)	/	/	/	-5%	6%	-7%	2%	/
COc1ccc(S(=O)(=O)NCCC(=O)OCC(=O)NC2CC2)cc1	/	/	17%	2%	1%	-16%	/	?
COCc1cc(OC)nc(-c2csc(C)n2)n1	/	/	/	-7%	-1%	-21%	-3%	/
COc1ccc(CCNC(=O)c2ccn[nH]2)cc1OC	-7%	2.7%	-4%	-10%	-5%	-13%	-12%	14%
O=C(Nc1cc(S(=O)(=O)N2CCCC2)ccc1OCC(F)(F)F)c1ccccc1F	1%	-6.5%	8%	11%	10%	-4%	-6%	-2%
CN1CCN(C(=O)Cn2c(=O)oc3cc(S(=O)(=O)NCc4ccccc4)ccc32)CC1	4%	3.7%	/	5%	0%	-16%	6%	/
CC(=O)N1CCCc2cc(S(=O)(=O)N(C)CC(=O)Nc3ccc(F)cc3Cl)ccc21	-4%	-2.6%	-29%[46.1 µM]	/	/	?	/	/
O=C(CSC1=Nc2ccccc2N=C(c2ccc(F)cc2)C1)Nc1cc(F)ccc1F	11%	-1.6%	27%[46.1 µM]	/	/	-13%	/	/
N#CC1=C(SCC(N)=O)NC(=O)CC1c1ccccc1Cl (stereo not given)	1%	2.2%	/	4%	-3%	-12%	2%	-5%
O=C(O)c1cc(N/N=C/c2c(O)ccc3ccccc23)ccc1Cl	/	/	?	-2%	0%	-21%	-4%	17%[46.1 µM]
CC(C)n1c(CN(C)Cc2ccccc2)nc2c1c(=O)n(C)c(=O)n2C	/	/	/	11%	2%	18µM*	5%	?
CCOc1[nH]n(-c2ccc(Cl)cc2)c(=O)c1C=Nc1ccc(O)cc1	?	0.5%	?	2%	0%	0%	-5%	?
O=C(NCc1ccc(Cl)cc1)C(=O)NCC(c1cccs1)S(=O)(=O)c1ccc(Cl)cc1 (stereo not given)	?	-2.3%	0%[46.1 µM]	/	/	0%	/	/
Cc1cc(N2C(=O)c3ccc(C(=O)Nc4ccccc4O)cc3C2=O)no1	/	/	0%[46.1 µM]	-2%	1%	-6%	3%	-6%[46.1 µM]
CCOCCCNC(=O)c1[nH]c2cc(OC)ccc2c1Sc1ccccc1	-17%	-10%	-11%[46.1 µM]	/	/	-3%	/	?
CC(C)(Oc1ccc(Cl)cc1)C(=O)Nc1ccc(-c2nc3ncccc3o2)cc1	5%	-1.8%	1%[46.1 µM]	/	/	?	/	-10%[46.1 µM]
COc1ccc(C(=O)NC(=S)Nc2ccc(CN3CCOCC3)cc2)cc1	/	/	?	-14%	-2%	?	-3%	-20%[14.2 µM]
O=C(C=Cc1ccco1)c1cc(Cl)ccc1O	/	/	?	?	/	?	/	2%
CCOc1ccc(NC(=O)COc2ccccc2)c([N+](=O)[O-])c1	/	/	?	0%	-1%	11%	/	?
CC(CNC(=O)c1cncc(O)c1)NC(=O)c1cncc(O)c1 (stereo not given)	8%	0.1%	8%	-9%	5%	-7%	3%	13%
CCOC(=O)c1sc(N/N=C/c2cc(Br)c(O)c(OC)c2)nc1C	/	/	/	3%	-27%	-8%	-8%	/
O=C(CCC(=O)N1CCOc2ccccc21)NCCc1ccccc1	/	/	/	-1%	2%	-4%	8%	/
COc1c(S(=O)(=O)NCCCN2CCOCC2)ccc(Cl)c1Cl	/	/	?	50%	0%	-7%	3%	-4%[46.1 µM]
Nn1cnc2scc(-c3ccc(Cl)cc3)c2c1=O	/	/	/	20%	0%	46%[activator]	-7%	/
O=C(O)CCCNC(=O)c1nn(Cc2ccccc2)c(=O)c2ccccc12	/	/	-3%	3%	11%	9%	7%	-15%
COc1ccc(NC(=O)Nc2cccc(NC(C)=O)c2)c(OC)c1	/	/	-6%	0%	-2%	1%	9%	-2%[46.1 µM]
COc1ccc(-c2nnc(SCC(=O)Nc3nc4ccccc4s3)n2C)cc1	-5%	-2.7%	-12%	-10%	1%	17%	1%	-2%
Cc1nc(SCC(=O)Nc2c(C)nn(C)c2C)c2cnn(-c3ccccc3)c2n1	20%	2.8%	?	28%	1%	?	0%	-28%
CC(NS(=O)(=O)c1ccc(F)cc1)C(=O)Nc1ccc2c(c1)OCCO2 (stereo not given)	/	/	-8%	-5%	-4%	3%	-3%	7%
Cn1c(N)c(C(=O)COC(=O)Cc2cccs2)c(=O)n(C)c1=O	/	/	-1%	-9%	0%	-22%	/	5%
CCC(C)OC(=O)C1=C(C)OC23OC(N)=C(C#N)C12C(=O)c1ccccc13 (stereo not given)	-10%	-11%	-7%	14%	-13%	0%	-16%	-4%
COc1ccc(S(=O)(=O)c2c(Nc3cccc(C)c3C)sc(C(=O)c3ccccc3)c2N)cc1	6.3µM*	-3.4%	?	/	/	21%	/	?
COc1ccc(C(=O)NCCN2CCN(C(=O)c3ccc(OC)cc3)CC2)cc1	/	/	1%	-18%	-1%	-19%	-6%	10%
OCCCCC#Cc1c(-c2ccsc2)sc2ccccc12	/	/	/	-1%	-9%	-20%	-96%	/
CCOC(=O)N1CCN(C(=O)CNC(=O)c2ccc(Br)o2)CC1	/	/	4%	7%	-1%	7%	5%	21%
CCCCCCn1cc(C(=O)O)c(=O)c2ccccc21	?	-5.4%	4%	-17%	-5%	0%	-58%	6%&6%[46.1 µM]
Cc1cc(C)n(CCC(=O)Nc2ccc(Cl)cc2)n1	19%	-2.6%	-1%[46.1 µM]	/	/	1%	/	/
COc1ccc(-n2c(SCC(=O)N3CCOCC3)nc(O)cc2=O)cc1	/	/	3%	2%	0%	-7%	23%	10%
Cc1ccc(Cn2c(CN3CCC(C(=O)NCC(C)c4ccccc4)CC3)cc3ccccc32)cc1 (stereo not given)	15%	-0.7%	-24%[46.1 µM]	/	/	22%	/	/
CCc1ccc2c(c1)cc(CN(C(=S)Nc1cccc(C)c1)C1CC1)c1nnnn12	1%	1.8%	?	-2%	5%	/	1%	?
CCN1CCN(c2ccc(NC(=O)Cc3ccccc3)cc2)CC1	4%	3.6%	0%	-11%	6%	19%	3%	11%
COc1ccc(NS(=O)(=O)c2ccc3c(c2)NC(=O)CCS3)cc1Cl	/	/	/	8%	2%	0%	?	/
COc1ccc(CN2CC(=O)N(c3ccc(C)c(C)c3)C2=S)cc1OC	/	/	-19%	-7%	-6%	-30%	/	13%[46.1 µM]
COc1ccc(C(=O)C2CCCN(Cc3cccn3-c3ccccn3)C2)cc1F (stereo not given)	/	/	?	-29%	-1%	-13%	-1%	?
C[C@H](NC(=O)N1C[C@H]2C[C@@H](C1)c1cccc(=O)n1C2)C(=O)Nc1ccccc1F	/	/	/	5%	1%	-22%	-2%	/
COc1ccc(NC(=O)CC2C(=O)N(Cc3cccs3)C(=S)N2C(C)C)cc1 (stereo not given)	/	/	4%	-3%	1%	-12%	/	?
CC(=O)Nc1ccc(NS(=O)(=O)c2cc3c4c(c2)CC(=O)N4CCC3)cc1	-7%	-0.2%	5%[46.1 µM]	/	/	-1%	/	/
Cc1ccc(S(=O)(=O)c2cn(CC(=O)Nc3ccc4c(c3)OCO4)c3ccccc3c2=O)cc1	-22%	-9.2%	-22%[46.1 µM]	/	/	1%	/	0%[46.1 µM]
Oc1c(C(c2ccccc2Cl)N2CCCC2)ccc2cccnc12 (stereo not given)	/	/	/	?	-5%	?	2%	/
Nc1ccccc1Cl	-3%	2.5%	/	3%	3%	-18%	/	/
CCC(Sc1nc2ccccc2c(=O)[nH]1)C(=O)O (stereo not given)	-7%	1.1%	-7%	10%[3.69 µM]	-5%	4%	1%	?
O=S(=O)(NCCS(=O)(=O)N1CCN(c2cccc(Cl)c2)CC1)c1ccc(F)cc1	2%	-7.7%	-22%[46.1 µM]	/	/	-13%	/	/
COc1cc(NC(=O)CCC(=O)Nc2ccc3nc(N4CCOCC4)cc(C)c3c2)cc(OC)c1OC	/	/	?	-12%	-2%	16%	-4%	?
Cc1nc2ccccc2nc1CSc1nncs1	-8%	-0.7%	1%	-9%	-1%	-13%	-5%	0%
COc1ccc(OC)c(C2CC(c3ccccc3)=NN2C(=S)Nc2ccccc2)c1 (stereo not given)	/	/	/	-11%	-1%	12%	3%	/
CC(=O)Oc1ccc(-c2csc(Nc3ccc(S(N)(=O)=O)cc3)n2)cc1	/	/	?	-27%	1%	-21%	3%	-1%[46.1 µM]
OC1/C(=C/c2ccc(F)cc2)N2CCC1CC2 (stereo not given)	-2%	1.7%	3%	-6%	11%	-7%	5%	2%
Cc1cccc(NC(=O)CSCc2cc(=O)n3ccsc3n2)c1C	/	/	/	1%	-3%	-10%	3%	/
COc1ccc(N2CCN(C(=O)C3CCN(C(=O)c4ccc([N+](=O)[O-])cc4)CC3)CC2)cc1	/	/	-24%[46.1 µM]	5%	-7%	-19%	-2%	?
O=c1[nH]cnc2c1sc(=S)n2-c1ccccc1	-3%	-8.8%	2%	-11%	2%	-27%	15%	?
Following part
SMILES	Cruzain noTriton	Cruzain inh Det	Lassa entry inh	RE007 growth inh	SARS PLpro yeast	StopGo reporter	NS1 inh	MARV entry inh
O=C(Cc1c(F)cccc1Cl)NCCc1c[nH]c2ccccc12	/	/	-14%[46.1 µM]	7%	-1%	17%	-2%	?
O=C(COc1ccc(Cl)cc1)N1CCN(S(=O)(=O)c2ccc(Cl)cc2)CC1	2%	-3.0%	1%	-19%	11%	-11%	0%	7%
COc1ccc(C2C(C(=O)OCC(=O)Nc3ccc(C)cc3)CCC(=O)N2c2ccc(OC)cc2)cc1 (stereo not given)	?	-1.8%	-8%	0%	-5%	-5%	6%	?
O=C(CN1CCCC1)Nc1ccc(NC(=O)Nc2ccccc2)cc1	-10%	0.0%	?	4%	4%	50%[activator]	-2%	1%
O=C(CSc1ncn[nH]1)N1CCN(c2nnc(-c3ccccc3)c3ccccc23)CC1	-1%	-3.8%	4%	6%[3.69 µM]	-4%	-12%	-33%	-15%
CCC(=O)Oc1c(Sc2ccc(C)cc2)c(C)nn1-c1ccccc1	-7%	-1.9%	1%[46.1 µM]	/	/	?	/	4%[46.1 µM]
